From PubChem BioAssay
HPGD inh – qHTS Assay for Inhibitors of HPGD (15-Hydroxyprostaglandin Dehydrogenase) | 15-hydroxyprostaglandin dehydrogenase [NAD(+)] (Homo sapiens), P15428 | purified HPGD, NADH fluorescence kinetic, PGE2 substrate | Potency, µM, for inactives: top-dose activity change, negative = inhibition, actives largely listed as inhibitors | hit rate 4.3% among 150,000 | AID 894, 2007; active = well fitted inhibition curve with a large enough effect (not every such curve was filed as active); inconclusive = small, poorly fitted or top-dose-only effect, or another doubt; inactive = no such curve, though single readings can be large or run the other way;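 further: top concentration of the series not given in the record; plate controls included wells without enzyme; inactives centre near -10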
Target sequence (P15428 whole entry, looked up): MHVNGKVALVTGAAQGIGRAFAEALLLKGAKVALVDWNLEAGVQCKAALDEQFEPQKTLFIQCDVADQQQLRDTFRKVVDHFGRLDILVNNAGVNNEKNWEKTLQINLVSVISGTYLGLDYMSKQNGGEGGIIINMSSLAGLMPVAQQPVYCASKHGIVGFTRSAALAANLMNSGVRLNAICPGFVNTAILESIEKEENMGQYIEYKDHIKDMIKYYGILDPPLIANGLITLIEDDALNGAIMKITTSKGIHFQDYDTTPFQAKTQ
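20 nM HPGD preincubated 15 min at room temperature with compound in 50 mM Tris-HCl pH 8, 0.01% Tween 20. Started with 1 mM NAD+ and 30 uM prostaglandin E2; NADH fluorescence (360/450 nm) read 5 times over 30-s intervals, last minus first.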
* marks the source's active call; other numbers are inactive results; ? = inconclusive. On the % scale 0 is the no-effect control and ±100 the full control effect; potency means the concentration at half of the fitted maximal effect.

| molecule | HPGD inh |
| --- | --- |
| CC(=O)N1CCN(CC(=O)Nc2ccc(Cl)c(S(=O)(=O)N(C)C)c2)CC1 | 1% |
| CC1CCCN(C(=O)c2sc3cc([N+](=O)[O-])ccc3c2Cl)C1 (stereo unspecified) | 0.45µM* |
| O=C(CN(C(=O)CCC(=O)Nc1ccccn1)c1ccc2c(c1)OCCO2)NCCc1ccccc1 | -6% |
| Cc1cccc(Cn2c(N3CCCCC3C)nc3c2c(=O)[nH]c(=O)n3C)c1 (stereo unspecified) | -19% |
| CN(C)S(=O)(=O)c1ccc(C(=O)Nc2nnc(Cc3ccccc3)s2)cc1 | -8% |
| Cc1ccc(-n2c(SCc3ccc([N+](=O)[O-])cc3)nc3ccccc3c2=O)cc1 | -13% |
| O=C(O[C@@H]1Cc2c(O)cc(O)cc2OC1c1ccc(O)c(O)c1)c1cc(O)c(O)c(O)c1 (stereo partly specified) | -26% |
| CCOC(=O)c1c(C)c(C(=O)Nc2ccc3c(c2)OCO3)c(C)n1C | -5% |
| COc1ccc(CC(=O)NCc2cccs2)cc1 | -28% |
| Cc1noc(C)c1COc1ccc(C(=O)NCC2CCCO2)cc1 (stereo unspecified) | ? |
| COc1cc2c(CCNC(C)=O)c[nH]c2cc1O | ? |
| COc1cc(C2Nn3c(nnc3-c3ccccc3OC)S2)ccc1O (stereo unspecified) | ? |
| Cc1cccc(C)c1OCC(=O)Nc1ccc(S(=O)(=O)Nc2ccccn2)cc1 | -24% |
| CSc1ccccc1C(=O)Nc1nccs1 | 16µM* |
| COc1ccccc1NC(=O)COC(=O)CNC(=O)c1ccc(OC)c(OC)c1 | -3% |

Next section:
| molecule | HPGD inh |
| --- | --- |
| CC(C)c1nnc(NC(=O)C2CCN(c3cnccn3)CC2)s1 | -5% |
| CCN1CCCC1CNC(=O)Cn1cccc1C(=O)c1ccccc1C (stereo unspecified) | -14% |
| Oc1c(Br)cc(C2N=C(c3ccccc3Cl)NO2)cc1Br (stereo unspecified) | -9% |
| Cc1ccn2c(/C=N/OCc3cccc(F)c3)c(-c3ccc(Cl)cc3)nc2c1 | ? |
| O=C(c1ccc(NS(=O)(=O)c2cccs2)cc1)N1CCCCC1 | 11µM* |
| C/C(=N\NC(=O)c1ccc(CN2CCOCC2)cc1)c1ccc([N+](=O)[O-])cc1 | -20% |
| Cn1c(=O)[nH]c(=O)c2c1nc(CN1CCN(c3cccc(Cl)c3)CC1)n2CCN1CCOCC1 | -6% |
| CC(=O)c1cc2c(cc1NC(=O)CCc1ccccc1)OCO2 | -29% |
| CSc1ccc(/C=C(\C#N)C(=O)Nc2cccc(C)c2)cc1 | -16% |
| CC1(C)CC(=O)C(C=NCCc2ccc(S(N)(=O)=O)cc2)=C(O)C1 | -16% |
| CC1S/C(=C(\C#N)C(N)=O)N(c2ccc(F)cc2)C1=O (stereo unspecified) | -11% |
| Cc1ccc(SC(=O)COc2ccc(C)c(C)c2)cc1 | ? |
| CCOc1ncccc1C(=O)N(C)CC(=O)Nc1ccccc1SC | -5% |
| Cc1cccnc1Sc1c([N+](=O)[O-])ncn1C | -8% |
| COc1ccc(N2C(=O)[C@@H]3[C@H](C2=O)[C@H]2c4ccccc4C=CN2[C@@H]3C(=O)Nc2ccccc2)cc1 | -22% |

(cont.)
| molecule | HPGD inh |
| --- | --- |
| CCCC1Cc2c(sc3nc(SC)nc(N)c23)CO1 (stereo unspecified) | -4% |
| Cc1cc(C)cc(NC(=O)CSc2nc3[nH]ncc3c(=O)[nH]2)c1 | -19% |
| COc1cc(C(=O)NCc2ccco2)cc(OC)c1OC | -6% |
| Cc1ccc(C2=[N+]([O-])C(C)N(O)C2(C)C)o1 (stereo unspecified) | 1% |
| COC(=O)c1ccccc1NC(=O)Cn1cnc2cc(C)c(C)cc21 | -9% |
| C=CCn1c(SCC(=O)NC23CC4CC(CC(C4)C2)C3)nc(O)cc1=O | ? |
| CC(Sc1nnc(N)s1)C(=O)Nc1ccc(N2CCOCC2)cc1 (stereo unspecified) | -9% |
| CCn1c(-c2ccoc2C)n[nH]c1=S | -13% |
| CSc1ccc(C#N)cc1NC(=O)c1ccc(Cl)cc1 | 3% |
| COc1ccccc1NC(=O)c1nn(C)cc1Br | -4% |
| COc1cc(/C=N/NC(=O)CC2(C)OCCCO2)ccc1OCc1ccccc1 | ? |
| CCCOc1ccc(C(=O)NNC(=S)NC(C)=O)cc1 | -17% |
| O=C(Nc1nc(-c2cccs2)c(-c2cccs2)s1)C1CCCC1 | ? |
| CC(C)NC(=O)c1ccccc1N(Cc1ccccc1)S(C)(=O)=O | -9% |
| O=C(CSc1nnc2c(n1)[nH]c1ccccc12)Nc1ccc2c(c1)OCO2 | ? |

More structures:
| molecule | HPGD inh |
| --- | --- |
| c1ccc(Oc2ccc(-c3ccnc4nc(N5CCN(c6ccccc6)CC5)nn34)cc2)cc1 | ? |
| COc1ccc(NC(=O)CSc2c(C)n[nH]c2C)cc1 | -14% |
| COc1ccc(S(=O)(=O)N(C)c2ccc(C(=O)N3CCC(C(N)=O)CC3)cc2)cc1 | -11% |
| COCCOC(=O)c1c(C)n(C)c2ccc(OC(=O)c3cccs3)cc12 | -4% |
| CC(=O)Nc1ccc(OC(=O)c2ccc(Cl)cc2)cc1 | -15% |
| C/C(CC(=O)Nc1ccc(Cl)c(Cl)c1)=N\NC(=O)Cc1ccccc1 | 0% |
| COC(=O)c1ccc(CSc2nc3ccc(C)cc3[nH]2)o1 | -14% |
| CN1CCN(c2ccc(Cl)cc2NS(=O)(=O)c2ccccc2Cl)CC1 | -9% |
| COc1ccc(Cl)cc1-c1nc(N)nc(N(C)C)n1 | -7% |
| CC1(C)Cc2c(c(N3CCOCC3)nc3sc4c(NN)ncnc4c23)CS1 | -18% |
| CCOC(=O)c1sc2nc(C3CC3)cc(-c3ccc(F)cc3)c2c1N | ? |
| COC(=O)c1c(NC(=O)CN2CCC3(O)CCCCC3C2c2ccc(OC)cc2OC)sc(C)c1C (stereo unspecified) | 20µM* |
| O=c1c([N+](=O)[O-])c(NCCN2CCCCCC2)c2ccccc2n1-c1ccccc1 | -10% |
| COc1ccc(C2c3sc(=O)[nH]c3SC3C(=O)N(c4ccccc4)C(=O)C32)cc1 (stereo unspecified) | -6% |
| COC(=O)c1cc(NS(=O)(=O)c2ccc3c(c2)CCC(=O)N3)cc(C(=O)OC)c1 | -23% |

(more compounds)
| molecule | HPGD inh |
| --- | --- |
| COc1ccc([N+](=O)[O-])cc1NC(=O)COC(=O)/C=C/c1ccco1 | -15% |
| Cc1ccccc1-n1c(C)nnc1SCc1cc(=O)oc2ccc3ccccc3c12 | -12% |
| COC(=O)c1cc(OC)c(OC)cc1NC(=O)c1cnccn1 | -15% |
| COCCn1nnnc1C(c1cc2cccc(C)c2[nH]c1=O)N1CCN(c2ccccc2F)CC1 (stereo unspecified) | -17% |
| COc1ccc(-n2[nH]c3c4c(ncc3c2=O)CCCCC4)cc1 | -3% |
| CCOC(=O)CNC(=O)CSc1nc(Cc2cccs2)nc2ccccc12 | -2% |
| Cc1ccc(Nc2cc(C)nn2-c2nc(C)cc(=O)[nH]2)cc1 | -16% |
| Cc1noc(C)c1S(=O)(=O)Nc1ccc(C(=O)O)cc1 | -10% |
| COC(=O)c1[nH]c(C)c(/C(O)=C2\C(=O)C(=O)N(CCN(C)C)C2c2cccs2)c1C (stereo unspecified) | -14% |
| O=C(CSc1nnc(-c2ccco2)n1-c1ccccc1)N1CCN(C(=O)c2ccco2)CC1 | -18% |
| O=C(CSc1ccc2ccccc2n1)NCCC1=CCCCC1 | -23% |
| CCn1ccc(C(=O)Oc2ccc(C(C)C)cc2)n1 | -5% |
| CN1C(=O)c2oc3ccccc3c(=O)c2C1c1ccncc1 (stereo unspecified) | ? |
| CCN1C(=O)c2ccccc2Sc2ccc(C(=O)NCCN3CCOCC3)cc21 | -3% |
| O=C(Nc1cccs1)Nc1c(F)cc(F)cc1Br | -24% |

Following part.
| molecule | HPGD inh |
| --- | --- |
| COC(=O)c1[nH]c2ccc(C)cc2c1NC(=O)C1=COCCO1 | -19% |
| Cc1cc(-c2csc(NC(=O)c3ccc(=O)n(C)n3)n2)c(C)n1CC1CCCO1 (stereo unspecified) | -10% |
| Cc1cn(Cc2ccccc2)c(=O)[nH]c1=O | ? |
| O=c1c2cc(N3CCOCC3)ccc2[nH]c(=S)n1Cc1ccco1 | ? |
| O=C(CCN1C(=O)COc2ccccc21)NCCN1CCN(c2cccc(Cl)c2)CC1 | 0% |
| Cc1nn(-c2ccccc2)c(Cl)c1/C=N\NC(=O)c1cncc(Br)c1 | -8% |
| N#CCCN(Cc1cccnc1)C(=O)c1ccc(S(=O)(=O)N2CCOCC2)cc1 | -15% |
| Nc1ccc(Cl)c(-c2nc3ncccc3o2)c1 | -18% |
| CCCc1cc(C(=O)N2CCN(C(c3ccccc3)c3ccccc3)CC2)no1 | -5% |
| Cc1ccc(CSCCNC(=O)c2ccccc2)cc1 | -9% |
| CC(C)CN1CC2(CCN(C(=O)c3cccc(F)c3)CC2)C1 | -12% |
| O=C(O/N=C1\CCCCC1c1ccc([N+](=O)[O-])cc1[N+](=O)[O-])c1c(F)cccc1F (stereo unspecified) | -5% |
| O=C(NCc1ccco1)c1csc2c1CCCCC2 | 6.3µM* |
| CC1CC(C)CN(CCCNC(=O)C2CCN(S(=O)(=O)N3CCCCC3)CC2)C1 (stereo unspecified) | -1% |
| Cc1ccc(C(=O)/C=C/c2ccc(Br)cc2)o1 | -9% |

(listing goes on)
| molecule | HPGD inh |
| --- | --- |
| CC(C)C12CCC(C(=O)O)C(C1)C(=O)O2 (stereo unspecified) | -2% |
| Cc1ccccc1NC(=S)NC(NC(=O)c1ccccc1C)C(Cl)(Cl)Cl (stereo unspecified) | -6% |
| CC1CCCC(NC(=O)c2ccc(CNc3c(N4CCCC4)c(=O)c3=O)cc2)C1C (stereo unspecified) | ? |
| C=CCn1c(SCC(=O)N2N=C(c3ccco3)CC2c2ccco2)nnc1-c1ccncc1 (stereo unspecified) | -13% |
| Cc1ccc2c(CC(=O)OC3CCOC3=O)coc2c1 (stereo unspecified) | -4% |
| O=C1C2CCCN2C(c2ccccc2)N1c1cccc(Cl)c1 (stereo unspecified) | -7% |
| CCOc1ccc(N2CC(C(=O)NCCN3C(=O)S/C(=C\c4ccc(OC)cc4)C3=O)CC2=O)cc1 (stereo unspecified) | -15% |
| CCOc1ccc(C(=O)NC(=S)Nc2ccc(NC(=O)CC)cc2)cc1[N+](=O)[O-] | -20% |
| CC1CC(C)CN(CC(C)(C)NS(=O)(=O)c2ccccc2)C1 (stereo unspecified) | -8% |
| Cc1ccc(-n2ncc(C(=O)N3CCc4ccccc4C3)c2NC(=O)c2ccco2)cc1C | ? |
| N#CC(=C1CCCC1)c1nc(-c2ccccc2)cs1 | -13% |
| O=C(CN1CCN(c2ccc(Cl)cc2)CC1)Nc1ccc(F)cc1 | -9% |
| COc1ccc(Cl)cc1C(=O)O/N=C(\N)c1ccc(Cl)cc1 | -22% |
| CCOC(=O)c1ccc(NC(=S)NC2CC(C)(C)NC(C)(C)C2)cc1 | -12% |
| CCc1cccc(C)c1N(C(=O)Cn1c(=O)[nH]c2ccccc21)C(C)COC (stereo unspecified) | -2% |

More compounds
| molecule | HPGD inh |
| --- | --- |
| CCCCN(CC)CCCNC(=O)Cn1nc(Cc2cccnc2)c2ccccc2c1=O | -6% |
| O=C(CN1CCN(CCOCCO)CC1)N1c2ccccc2Sc2ccc(Cl)cc21 | -2% |
| CCOc1cc(C(=O)Nc2cc(=O)n(C)c(=O)n2C)cc(OCC)c1OCC | -9% |
| CN1/C(=C/C2CC(=O)NC2=O)C(C)(C)c2ccccc21 (stereo unspecified) | -6% |
| CCC(c1c(C)[nH]oc1=O)c1c(C)[nH]oc1=O | -3% |
| CCC(Sc1ccc2nnc(-c3ccc(OC)c(OC)c3)n2n1)C(=O)O (stereo unspecified) | 14µM* |
| CC1CC(NS(=O)(=O)c2cccs2)CC(C)(C)C1 (stereo unspecified) | -8% |
| COc1ccccc1CNCC(O)Cn1c2ccccc2c2ccccc21 (stereo unspecified) | 4% |
| COc1ccc(OC)c(S(=O)(=O)Nc2ccccc2F)c1 | -12% |
| COc1ccc(OC)c(NC(=O)CSc2nc3ccccc3c3nc4ccccc4n23)c1 | ? |
| CCOc1cc(/C=N/NC(=O)c2cc(-c3cccc(OC)c3)n[nH]2)ccc1O | -25% |
| CCC1Oc2ccccc2N(CC(=O)NCCCN2CCN(Cc3ccccc3)CC2)C1=O (stereo unspecified) | -8% |
| CC(=O)c1cccc(NC(=O)C23CC4CC(C2)CC(n2cncn2)(C4)C3)c1 | -22% |
| COCCNC(=O)C(OC(=O)CC1Sc2ccccc2NC1=O)c1ccccc1 (stereo unspecified) | -24% |
| CCOC(=O)COc1ccc2c(c1)C(=O)CC1(CCCCC1)O2 | ? |

4 entries already listed, ordered by the number in HPGD inh, rising.
| molecule | HPGD inh |
| --- | --- |
| CCOc1cc(/C=N/NC(=O)c2cc(-c3cccc(OC)c3)n[nH]2)ccc1O | -25% |
| CCOc1cc(C(=O)Nc2cc(=O)n(C)c(=O)n2C)cc(OCC)c1OCC | -9% |
| CC1CC(NS(=O)(=O)c2cccs2)CC(C)(C)C1 (stereo unspecified) | -8% |
| O=C(CN1CCN(CCOCCO)CC1)N1c2ccccc2Sc2ccc(Cl)cc21 | -2% |

(further entries)
| molecule | HPGD inh |
| --- | --- |
| COC(=O)CSc1nc(-c2cccs2)ccc1C#N | ? |
| Cc1nnc(SCc2ccc(F)cc2)n1NC/C=C/c1ccccc1 | -10% |
| CCCC(=O)Nc1ccc(C(=O)NCC(=O)OCC)cc1 | -8% |
| Cc1cc(-c2cccnc2)c(C#N)c(SCc2cccc(F)c2)n1 | -20% |
| COc1ccc(-n2c(C)n[nH]c2=O)cc1 | -2% |
| COc1ccc(S(=O)(=O)N2CCSC2c2ccccc2)cc1 (stereo unspecified) | -19% |

Not all compounds are listed; count on the stated rates, not on these rows.
